# StopGo FLuc: Primary qHTS Assay for Foot and Mouth Disease Virus Antivirals against NCGC Sytravon and CBC Compound Libraries: Firefly Luciferase Signal | Potency, µM (top dose mostly 57.5 µM), without a hit: at the highest dose signal change, negative = less light | HEK cells with a luciferase reporter of 2A StopGo recoding | AID 1745856, 2022 | actives 0.23% (n = 120,000); active = well fitted falling curve with a large enough effect; inconclusive = small, poorly fitted or top-dose-only effect; inactive = no such curve, though single readings can be large or run the other way; further: nearly all actives have a fitted effect of over 60% in size; overnight with compound
# 2A Renilla: Primary qHTS Assay for Foot and Mouth Disease Virus Antivirals against NCGC Sytravon and CBC Compound Libraries: Renilla Luciferase Signal; HEK cells with a luciferase reporter of 2A StopGo recoding; Potency, µM (series often up to 57.5 µM), for inactives: at the highest dose signal change, negative = less light; actives 0.32% (n = 120,000); AID 1745857, 2022; active means well fitted falling curve with a large enough effect; inconclusive means small, poorly fitted or top-dose-only effect; inactive means no such curve, though single readings can be large or run the other way; further: nearly all actives have a fitted effect of over 55% in size; overnight with compound
# Numbers without * were called inactive; u = inconclusive; & = joins results of further samples; [ ] = remark or other dose. On the % scale 0 is the no-effect control and ±100 the full control effect; potency means the concentration at half of the fitted maximal effect. A portion of the library; the hit share may differ from the screen's.
SMILES,StopGo FLuc,2A Renilla
CCOC(=O)COc1ccc2c(=O)c(Oc3ccccc3Br)c(C)oc2c1,13.0%,-8.0%
Nc1c[n+](N2CCOCC2)no1,-11.6%,-0.4%
COC(=O)[C@]12C[C@H](CC(=O)NCc3ccc(C)o3)C(=O)N(CCc3ccc(OC)c(OC)c3)C1=C[C@H](C(C)C)O[C@@H]2C1CC1,-7.4%,23.5%
CC1=CCC2C(C)(C)CCCC2(C)C1CC/C(C)=C/CC/C(C)=N/NC(N)=O (configuration not stated),-3.6%,-10.1%
CN(CCOc1ccc(F)cc1)C(=O)c1n[nH]c(=O)c2ccccc12,1.6%,-4.0%
Cc1nc2ccccc2c(Cl)c1C/C=C/Cl,16.9%,-9.0%
Cc1sc2ncn(CC(=O)N3CCN(c4ccccc4F)CC3)c(=O)c2c1S(=O)(=O)N1CCN(c2ncccn2)CC1,-22.2%,-9.6%
N#Cc1nc(-c2ccc(Cl)cc2)oc1N1CCN(CCO)CC1,27.1%,-6.2%
CC1CCN(S(=O)(=O)c2ccc3c(c2)N(CC(=O)N2CCN(c4ccccc4)CC2)C(=O)CO3)CC1,-2.4%,-8.2%
CCCc1nnc(NC(=O)c2cc(=O)c3cc(Cl)ccc3o2)s1,-19.4%,-4.2%
CN(Cc1ccccc1Cl)S(=O)(=O)c1cccc2nsnc12,2.5%,37.5%[activator]
NC(=O)CSc1nnnn1-c1cccc(O)c1,18.5%,-10.3%
CSc1ncc(C(=O)Nc2cccc(Cl)c2C)c(-c2ccccc2)n1,-6.1%,-7.5%
Cc1ccccc1C(CC(=O)Nc1cccc(-c2ccno2)c1)n1cccc1 (configuration not stated),10.1%,80.3%[activator]
Cc1ccccc1NS(=O)(=O)c1c[nH]c2ccc([N+](=O)[O-])cc12,16.5%,283.8%[activator]
CNC12CC3CC(CC(S)(C3)C1)C2,-17.9%,-19.6%
O=C(CCCc1ccccc1)NCc1ccco1,8.1%,4.8%
CC(CNC(=O)c1cc(C2CC2)nc2ccccc12)N(C)C (configuration not stated),-10.1%,-11.7%
CCc1cc(=O)oc2cc(OCC(=O)N(C)C)ccc12,19.7%,3.8%
CC(=O)N1CCc2c(sc3c2c(=O)n(-c2cccc(Cl)c2C)c(=O)n3Cc2ccccc2C)C1,-12.2%,-15.3%
CCCCC1CCC(C(=O)C2CCC(c3ccccc3)C2)CC1 (configuration not stated),-1.8%,-0.1%
CCOCCCNC(=O)C1CC(=O)N(CCc2c[nH]c3ccc(C)cc23)C1 (configuration not stated),13.5%,2.9%
Cc1nc(-c2ccsc2)sc1C(=O)NCc1ccccc1,0.0%,43.9%[activator]
COc1cc(OC)c2c(C)c(CC(=O)NCCc3ccc(OC)c(OC)c3)c(=O)oc2c1,9.2%,5.2%
Cc1ccc2nc(N3CCN(C(=O)CCCC(=O)O)CC3)nc(-c3ccccc3)c2c1,6.6%&5.2%,2.2%&4.4%
# (listing goes on)
SMILES,StopGo FLuc,2A Renilla
Cc1ccc(C(=O)NC(O)C(=O)c2ccc(C)cc2)cc1 (configuration not stated),10.1%,0.7%
OCC#CCSc1nc2ccccc2s1,0.0%,-8.9%
CCOc1ccc(-c2nonc2NC(=O)c2oc3cc(C)ccc3c2C)cc1OCC,6.9%,-3.1%
O=C(O)CCCCC1CCSS1 (configuration not stated),-11.2%[11.5 µM],-6.7%
COC(=O)CNC(=O)C(C)(C)c1cccc(C(F)(F)F)c1,0.0%,0.2%
Cc1ccc2oc3c(c(=O)c2c1)C(c1ccc(OCC(N)=O)cc1)N(Cc1ccc2c(c1)OCO2)C3=O (configuration not stated),10.8%,-1.2%
CCOc1ccccc1NC(=O)COC(=O)c1nn(C)c(=O)c2ccccc12,-6.5%,-1.4%
CCn1nc(C(=O)Nc2ccc3nc(SC)sc3c2)c2ccccc2c1=O,87.6%[activator],-2.1%
O=C(Nc1nc(-c2ccccn2)cs1)C1CC(=O)N(c2ccccc2F)C1 (configuration not stated),13.6%,-5.0%
CCOc1ccccc1CN1CCN(c2cccc(C)c2C)CC1,u,u
Cc1[nH]c2c(C)cccc2c1CCN,1.5%,3.0%
CCOC(=O)C(N/C=C(/C#N)c1cccc(F)c1)C(=O)OCC,12.8%,227.8%[activator]
COc1ccc(-c2nn(C)c3sc(C(=O)N4CCN(c5cc(Cl)ccc5C)CC4)cc23)cc1OC,-18.9%,-10.5%
CC(C)CCNC(=O)CN1C(=O)c2cccnc2Sc2ccccc21,-7.6%,-1.0%
Fc1cccc(Oc2ncnc3c2cnn3-c2cccc(Cl)c2)c1,19.7%,3.5%
O=C(NNC(=O)C1CCCCC1)c1cccc2cccnc12,166.6%[activator],20.1%
C=C(Br)CN1CCCC1,34.8%[activator],1.4%
CN(NC(=O)CCCNC(=O)c1ccc(Cl)cc1)c1ccccc1,42.8%[activator],15.4%
CCCCn1c(=O)c2c(nc(Br)n2Cc2ccccc2)n(C)c1=O,-14.8%,-14.2%
Cc1ccccc1CN1CCC(N(C)Cc2ccccc2)CC1,-13.0%,-12.5%
Cc1cc(-c2ccccc2)c2c(C)c(C)sc2n1,-0.1%,12.0%
COc1ccc(-c2coc3cc(OCC(=O)Nc4nccs4)ccc3c2=O)cc1,6.7%,1.8%
COc1ccc(-c2ccc3c(N)c(C(=O)Nc4ccc(C)cc4C)sc3n2)cc1OC,-17.8%,-11.2%
COc1ccc(NC(=O)CSCc2ccc(Br)cc2)c(OC)c1,3.3%,1.7%
O=C(O)c1cc(F)ccc1Cl,13.2%,2.8%
# Other records follow.
SMILES,StopGo FLuc,2A Renilla
CCCCNC(=O)CSc1nc2n[nH]c(C)c2c(=N)n1-c1cccc(Cl)c1C,8.6%,55.7%[activator]
Cc1ccc(-c2noc(-c3cccnc3NCc3ccco3)n2)cc1,194.0%[activator],18.1%
CCC1CCCCN1C(=O)CCS(=O)(=O)c1cc2c(cc1C)NC(=O)CO2 (configuration not stated),-11.2%,-1.3%
Cc1ccc(NC(=O)COc2ncnc3ccc(Br)cc23)cc1C,-15.6%,-7.4%
CCOC(=O)c1sc2ccccc2c1S(=O)(=O)N1CCN(c2cccc(C)c2C)CC1,-21.5%,-13.4%
COCCNC(=O)CN1CCN(C(C(=O)O)c2c(C)[nH]c3ccccc23)CC1 (configuration not stated),-0.8%,-8.7%
Cc1ccc(CNC(=O)c2ccc(CSCc3ccc(Cl)cc3)o2)cc1,u,-29.2%
CCCCNC(=S)Nc1cccc(Cl)c1,91.2%[activator],129.8%[activator]
COc1ccc(N2CCN(c3c4c(nc5nncn35)CCC4)CC2)cc1,-2.5%,u
O=C(CSc1cn(Cc2ccc(F)cc2)c2ccccc12)N1CCCCC1,71.1%[activator],31.0%[activator]
COc1ccc(CC(=O)NCc2ccc3c(c2)CCN3C(C)=O)cc1OC,-10.4%,-7.7%
O=C(CSc1ccc(F)cc1)Nc1cc2c(cc1Cl)OCCCO2,105.9%[activator],0.0%
O=C(NCC(c1ccco1)S(=O)(=O)c1ccc(Cl)cc1)c1ccc(C(F)(F)F)cc1 (configuration not stated),-11.5%,-29.0%
COCCCNC(=O)C1CCN(c2nn3cc(-c4ccc(F)cc4)nc3s2)CC1,98.0%[activator],8.7%
Cc1ccc(N(C)C(=O)CN2C(=O)CCc3cc(S(=O)(=O)N4CCOCC4)ccc32)cc1,21.3%,-7.7%
C=CCNC(=O)/C=C/c1cnc2ccccc2n1,76.8%[activator],11.4%
COCCNc1oc(-c2ccccc2)nc1S(=O)(=O)c1ccc(Br)cc1,-2.2%,246.3%[activator]
CC1CCCCN1C(=O)CSc1nc2ccccc2nc1Cc1ccc(Cl)cc1 (configuration not stated),u,121.0%[activator]
Cc1ccc(CN(Cc2ccco2)C(=O)COc2ccc(C)c(C)c2)cc1,87.8%[activator],18.1%
O=C(O)c1cc(F)c(Cl)cc1Cl,-1.8%,1.2%
CN(CCOc1ccccc1Cl)Cc1cc(=O)oc2cc(O)ccc12,-4.1%,0.2%
Cc1cccc(NC(=O)c2cc3c(=O)n4cccc(C)c4nc3s2)c1C,-16.3%,-12.1%
O=c1c(Cl)c(N2CCN(S(=O)(=O)c3ccccc3)CC2)cnn1-c1ccccc1,-5.3%,1.8%
Cc1cc(C(C#N)c2ccc(Cl)cc2)c(Cl)cc1NC(=O)CCc1ccccc1 (configuration not stated),0.9%,1.8%
COc1ccc(Cn2ccnc2SCC(=O)Nc2ccc(C)cc2C)cc1,-6.0%,-2.5%
# Next records:
SMILES,StopGo FLuc,2A Renilla
O=C(Nc1cc2cccc([N+](=O)[O-])c2oc1=O)c1ccc(F)cc1,162.1%[activator],1.8%
Cc1ccc(NC(=O)Cc2c[nH]c3ccccc23)cc1C,122.5%[activator],32.2%[activator]
COCCNC(=O)COC(=O)c1cc(C)nc2ccccc12,-4.8%,-8.1%
O=C(c1ccc2c(c1)nc1n2CCCCC1)N1CCN(c2ccccc2F)CC1,0.0%,7.8%
CCCn1c2ccccc2c2cnn(CC(=O)Nc3cc(OC)c(OC)c(OC)c3)c(=O)c21,16.4%,12.9%
NS(=O)(=O)c1ccc(CCNc2ncnc3c2cnn3-c2ccccc2Cl)cc1,18.4%,-29.6%
CCC(=O)N1CCc2cc(Br)cc(S(=O)(=O)N3CCN(c4ccccc4OC)CC3)c21,3.2%,12.6%
CCCCNC(=O)CCn1c(=O)c2cccn2c2cccnc21,-1.3%,-6.6%
COc1cc2c(cc1OC)C(C)N(CC(=O)Nc1ccc(C)cc1)CC2 (configuration not stated),-15.4%,-11.3%
CCOc1cc(CNC(=O)CSc2n[nH]c(-c3ccccc3)n2)cc(OCC)c1OCC,-13.1%,97.2%[activator]
Cc1ccc(-c2cc(C(=O)NCCN(C)C)c3cc(Br)ccc3n2)o1,10.9%,5.2%
CC(C)c1cc(C(=O)Nc2ccc(F)cc2)nn1C1CCS(=O)(=O)C1 (configuration not stated),3.8%,-7.8%
COc1ccc(-c2[nH]ncc2C(=O)NCc2cccc(F)c2)cc1,u,-7.9%
C#CCNC(=O)N1CCN(c2cccc(Cl)c2)CC1,22.5%,19.0%
COc1ccc(CNC(C)c2ccccc2)cc1 (configuration not stated),-2.2%,-7.0%
Cc1ccc2nc(NC(=O)c3nc(SCc4ccccc4C)ncc3Cl)sc2c1,19.2%,-11.0%
CC1CCN(S(=O)(=O)c2ccc3c(c2)N(CC(=O)NCCCOC(C)C)C(=O)CO3)CC1,6.4%,11.8%
O=C(O)CCCCn1c(SCC(=O)Nc2ccccc2C(F)(F)F)nc2ccsc2c1=O,-8.6%,6.0%
COCc1cccc(C(=O)NCCc2ccccc2)c1,23.0%,16.2%
CC(C)CCOc1ccc(Oc2nc(N(C)C)nc(N(C)C)n2)nn1,-10.3%,-6.5%
Cc1cccc(N2CCN(C(=O)c3cc4ccc(F)cc4nc3C)CC2)c1C,15.0%,10.3%
COc1ccc(B(O)O)cc1,4.7%,0.7%
CC(C)(C)c1cc(-c2nc3ccccc3[nH]2)n[nH]1,2.82µM*,7.9%
N#Cc1ccc(Cn2cc(C(=O)C3CC3)c3ccccc32)cc1,11.2%,0.0%
Cc1noc2ncc(C(=O)Oc3ccc4cc(Br)ccc4c3)cc12,12.7%,-1.8%

# Some of the entries so far, as labelled records:
molecule: CC1CCN(S(=O)(=O)c2ccc3c(c2)N(CC(=O)NCCCOC(C)C)C(=O)CO3)CC1
  StopGo FLuc: 6.4% | 2A Renilla: 11.8%

molecule: O=C(O)CCCCn1c(SCC(=O)Nc2ccccc2C(F)(F)F)nc2ccsc2c1=O
  StopGo FLuc: -8.6% | 2A Renilla: 6.0%

molecule: COCc1cccc(C(=O)NCCc2ccccc2)c1
  StopGo FLuc: 23.0% | 2A Renilla: 16.2%

molecule: CC(C)CCOc1ccc(Oc2nc(N(C)C)nc(N(C)C)n2)nn1
  StopGo FLuc: -10.3% | 2A Renilla: -6.5%

# Next section:
SMILES,StopGo FLuc,2A Renilla
O=C(Cc1cccs1)N1CCSCC1,9.2%,-2.2%
O=C(Nc1ccc(OC2CCCC2)cc1)c1ccccn1,-32.4%,9.8%
Cc1ccc(C(=O)NCC(=O)N(C)CC(=O)Nc2ccc(Cl)cc2)s1,68.7%[activator],16.6%
Cc1ccc(N/N=C/C=C/c2ccccc2)cc1Cl,167.9%[activator],7.3%
CN1CCN(c2ccc(NC(=O)c3cccc(F)c3)nc2)CC1,u,-4.7%
Cc1cccc(Cn2c(=O)c3c(nc(-n4nc(C)cc4C)n3CC(C)C)n(C)c2=O)c1,-7.6%,-10.3%
COCCNc1oc(-c2cccs2)nc1S(=O)(=O)c1ccc(Cl)cc1,1.1%,158.6%[activator]
CC(C)(C)OC(=O)NCc1cc(F)ccc1/C=C/S(=O)(=O)NC1CCCC1,6.2%,244.6%[activator]
CCc1nc2ccccc2n1CC(O)c1cccc(Br)c1 (configuration not stated),-12.0%,-17.0%
COc1ccc(NC(=O)c2ccco2)cc1NC(=O)c1cc(Cl)ccc1OC,0.0%,4.9%
CC(CN1CCCCC1)OC(=O)c1cc(C(C)(C)C)cc(C(C)(C)C)c1 (configuration not stated),-1.4%,-6.2%
Cc1nn(C)cc1CN(C)C(=O)Cn1nc(C(F)(F)F)c(Cl)c1C,4.3%,-15.5%
O=C(NC1(C(F)(F)F)C(=O)Nc2c1c(=O)[nH]c(=O)n2-c1ccc(F)cc1)c1ccccc1 (configuration not stated),-20.4%,-10.2%
Fc1ccc(-c2nnc(SCc3ncc(-c4ccccc4)o3)o2)cc1,28.0%,-6.4%
CCc1ccccc1NC(=O)CN1C(=O)c2cccnc2Sc2ccccc21,22.4%,-16.5%
Cc1ccc(F)c(NC(=O)c2cncn2-c2ccccc2)c1,-7.1%,-8.4%
